Vif TR-FRET – HIV-1 Vif–A3G interaction blockers – biochemical, TR-FRET, GST-Vif 1-94, biotin-A3G peptide, dose response retest, primary screen (AID 1117319). hit rate 0.57% among 260,000. inhibition, %; hits with a dose series show IC50 in µM. TR-FRET GST-Vif / biotin-A3G peptide binding; higher % means a stronger effect; test concentration not given here; strong numbers were not always called active;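 active = above the screen mean plus three standard deviations and confirmed in dose response; inconclusive = results disagree or hit not tested in dose response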;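 also: Vif residues 1-94 fused to GST binding biotinylated APOBEC3G peptide 110-148; 0% = full assay without inhibitor and 100% = GST in place of GST-Vif; retest series ran down from 100 µM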
B2AR ag – agonists of human beta-2 adrenergic receptor inducing internalization. Am2.2-beta2AR cells, FAP receptor internalization, flow cytometry; reference of the scale not given here. response, % (no concentration beside the values). AID 504454. hit rate 0.43% among 340,000;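 active = response above a set limit, near 3 SD of response in nonfluorescent compounds, cut at about 42% in these data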;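 also: stock transfer was 100 nL into about 11 µL; a reference agonist was the positive control; negative values mostly stem from fluorescent compounds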
Ecoli growth – inhibitors of Escherichia coli growth. hit rate 0.21% among 330,000. OD600, 23 h; stronger effect = lower value. OD600 absorbance (test concentration not listed);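 active = OD600 absorbance below the run mean of sample wells minus 3.6 SD, in any replicate, cut at about 0.56 in these data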;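 also: stock transfer was 300 nL into about 60 µL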
HNF4A DNA FP – change in binding of human HNF4 alpha to DNA. HNF4a-FITC DNA binding, fluorescence polarization, 1 h. activity change, % at 10 µM. hit rate 0.3% among 360,000. AID 1224865; in the data active = activity change above about 30%, passing the limit was not always enough;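 also: controls were the assay level and a saturating level of protein; the project sought stronger binding though the title names inhibitors; some compounds called inactive have numbers as strong as hits; positive values seem to mean higher polarization but the record does not say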
LANA-H2A inh – blocks KSHV LANA binding to histone H2A/H2B. hit rate 0.6% among 320,000. inhibition, % (no concentration beside the values). cell-free LANA-H2A/H2B peptide, fluorescence polarization; in the data active = inhibition mostly above about 10%, no sharp cut-off; inactive = mostly below about 6.7%;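 also: stock transfer was 7.5 nL into about 10 µL; 0% = median of vehicle wells and 100% = median of positive control wells; one replicate is shown; the record names a cut of 25% in any replicate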
Target sequence (Q9QR71 whole entry, looked up): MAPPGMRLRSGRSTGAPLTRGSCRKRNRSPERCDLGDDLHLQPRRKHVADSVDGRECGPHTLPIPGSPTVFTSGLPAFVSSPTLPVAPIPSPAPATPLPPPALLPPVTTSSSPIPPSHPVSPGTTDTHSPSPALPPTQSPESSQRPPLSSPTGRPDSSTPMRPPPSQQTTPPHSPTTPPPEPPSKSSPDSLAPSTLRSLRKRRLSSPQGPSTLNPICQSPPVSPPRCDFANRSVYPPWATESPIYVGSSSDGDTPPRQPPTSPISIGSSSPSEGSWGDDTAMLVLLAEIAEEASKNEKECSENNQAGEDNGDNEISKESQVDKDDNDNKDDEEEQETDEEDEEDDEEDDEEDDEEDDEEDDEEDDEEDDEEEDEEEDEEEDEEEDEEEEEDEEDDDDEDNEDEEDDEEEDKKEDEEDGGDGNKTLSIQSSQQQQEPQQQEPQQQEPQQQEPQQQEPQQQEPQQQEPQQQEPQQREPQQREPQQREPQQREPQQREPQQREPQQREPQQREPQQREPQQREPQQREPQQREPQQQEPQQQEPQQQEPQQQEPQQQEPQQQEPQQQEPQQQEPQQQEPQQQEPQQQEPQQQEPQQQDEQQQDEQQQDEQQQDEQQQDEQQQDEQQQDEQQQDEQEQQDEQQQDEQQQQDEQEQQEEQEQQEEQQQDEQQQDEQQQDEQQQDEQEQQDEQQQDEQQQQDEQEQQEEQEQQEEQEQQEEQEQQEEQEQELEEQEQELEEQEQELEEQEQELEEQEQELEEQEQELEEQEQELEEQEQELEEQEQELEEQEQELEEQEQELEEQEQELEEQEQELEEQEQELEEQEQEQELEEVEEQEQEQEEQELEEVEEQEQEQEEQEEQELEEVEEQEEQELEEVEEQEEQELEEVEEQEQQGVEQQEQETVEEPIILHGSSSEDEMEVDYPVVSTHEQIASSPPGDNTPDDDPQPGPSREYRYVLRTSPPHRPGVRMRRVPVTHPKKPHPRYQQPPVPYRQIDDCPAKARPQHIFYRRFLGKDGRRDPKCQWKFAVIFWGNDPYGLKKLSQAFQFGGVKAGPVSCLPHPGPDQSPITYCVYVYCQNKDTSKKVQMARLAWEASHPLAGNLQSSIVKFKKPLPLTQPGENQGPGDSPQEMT
A1 inh – inhibitors of the anti-apoptotic protein A1, read as caspase activation | MEF A1-2A-BIM cells, Caspase-Glo 3/7 luminescence, 3 h; percent of clofoctol response, vehicle zero | caspase activation, % (test concentration not listed) | hit rate 0.066% among 330,000;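 active = over half of replicate activation scores above 10%, or exactly half above 10 with the replicate mean above 10; inconclusive = replicate mean below 10 yet half the replicates above 10; inactive = over half of replicates below 10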;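 also: wells of about 30 µL received 50 nL stock; many hits fall short of the cut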
UCH37 DUB inh – human UCH37 deubiquitinating enzyme inhibition; inhibition, % (no concentration beside the values); purified proteasome/UCH37, Ub-AMC cleavage fluorescence; Q9Y5K5; hit rate 0.33% among 330,000;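 active = mean of two replicates above 20%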;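 also: 0% = compound-free wells with enzyme and 100% = wells lacking proteasome; stock transfer was 100 nL into about 20 µL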
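Schedule: 30 min plus 25 min, room temperature / Material: human UCH37 within purified proteasomes / Technique: AMC fluorescence intensity at 355/460 nm / Buffer or medium: pH 7.4 Tris-HCl (50 mM) with ovalbumin, ATP-MgCl2, DTT / Controls: wells without proteasome as full block, compound-free enzyme plus substrate as uninhibited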
* = called active by the depositor; ? = inconclusive; / = not tested or not shown; & = joins results of further samples.

SMILES	Vif TR-FRET	B2AR ag	Ecoli growth	HNF4A DNA FP	LANA-H2A inh	A1 inh	UCH37 DUB inh
CC(C)(Oc1ccc(Cl)cc1)C(=O)OCC(=O)NCCc1ccccc1	/	1	0.64	-0.9	0.3	0.6	2.2
Cc1ccc(Cl)cc1NC(=O)CN1CCN(S(=O)(=O)N2CCOCC2)CC1	/	82*	0.65	0.9	1.7	-0.4	4.8
COc1ccc(CCN(C)C(=O)CCNS(=O)(=O)c2ccccc2C(F)(F)F)cc1OC	-13%	-2	0.7	3.6	-3.7	-0.9	-1.2
Cc1nn(-c2ccccc2)c(N2CCCCC2)c1/C=N/NC(=O)c1ccncc1	-3%	4	/	3.2	0.3	0.0	/
O=C(NC1CCCC1)C(c1ccc(F)cc1)N(C(=O)c1csnn1)c1ccccc1 (stereo not drawn)	/	4	0.67	-0.4	4.0	0.5	3.3
CC(C)(C)OC(=O)NCCCCCNC(=O)c1ncn(Cc2ccccc2)c1C(=O)NCCCCCNC(=O)OC(C)(C)C	/	3	0.74	0.5	2.7	0.1	-0.2
O=C(NC1CCCCC1)N1CCC(n2cnc3ccccc32)CC1	5%	-1	0.7	-0.8	-2.6	1.0	1.1
CCOc1ccc(NC(=O)c2cccc(NC(=O)c3ccccc3)c2)cc1	-1%	-2	0.67	0.4	7.1	0.2	0.9
O=C(O)C1CCN(S(=O)(=O)c2ccc3c(c2)OCCCO3)CC1	-3%	-8	0.72	-0.3	-0.9	0.2	-1.6
O=S(=O)(NCc1ccc(F)cc1)c1ccc(-n2cccn2)cc1	?	-14	0.68	-0.1	2.1	-1.5	-0.3
O=C1N(Cc2ccccc2)c2ccc(Cl)cc2C12OCCO2	/	-11	0.69	3.2	-1.8	-0.1	3.1
Cc1ccc(NC(=O)c2ccc(NCCCN3CCOCC3)c([N+](=O)[O-])c2)cc1Cl	13%	12	0.64	2.7	2.6	0.1	1.9
CC(C)C(=O)Nc1cccc(C(=O)Nc2ccccc2C(=O)O)c1	1%	1	0.72	-2.6	-0.1	1.6	3.2
CC(=O)c1cc(F)c(N2CCN(c3ccc([N+](=O)[O-])cc3F)CC2)cc1C	5%	5	0.74	-2.2	-14	0.2	3.3
CCOC(=O)C1(Cc2ccc(O)cc2)NC(c2ccco2)C2C(=O)N(c3ccccc3F)C(=O)C21 (stereo not drawn)	0%	4	0.66	0.5	-0.7	-1.2	0.8
COc1ccc(OC)c(NC(=O)CCN2CCN(c3ccccc3F)CC2)c1	26%	-10	0.69	2.8	0.6	0.5	3.2
CCN(C(=O)CSc1nc2cc(C(F)(F)F)ccc2n1Cc1ccccc1)C1CCS(=O)(=O)C1 (stereo not drawn)	/	-6	0.7	2.2	-2.8	0.8	5.0
Cc1cc(C)nc(NS(=O)(=O)c2ccc(NC(=S)NC(=O)CC(C)C)cc2)n1	2%	3	0.73	-1.2	1.0	-0.4	1.0
CCOC(=O)c1cn2nc(Oc3ccc(C#N)cc3)ccc2n1	6%	-1	0.6	-0.9	3.2	1.4	-184
CC1CC(C)CN(C(=O)c2ccc3c(=O)n(Cc4ccc5c(c4)OCO5)c(=S)[nH]c3c2)C1 (stereo not drawn)	21%	6	0.74	-2.4	-1.9	-0.7	1.9
Cc1cccc(OCCCC(=O)Nc2ccc(N3CCOCC3)cc2)c1	?	-1	0.65	-1.5	1.0	0.1	0.7
Cc1cc(C)c(NC(=O)COC(=O)C2CCCO2)c(C)c1 (stereo not drawn)	3%	-3	0.71	1.5	5.1	1.9	1.4
O=C(N/N=C/c1ccc([N+](=O)[O-])o1)c1cc(-c2ccncc2)nc2ccccc12	?	24	/	-1.3	1.1	-0.3	/
O=C(OCC(=O)N1CCCC1)c1cc(Br)ccc1Cl	0%	-1	0.67	-0.9	3.9	-0.9	6.7
COc1cccc(C(=O)NCCSc2ccc(Br)cc2)c1	-2%	-11	0.66	-1.2	0.7	1.7	0.7
COc1ccccc1C(=O)NCC(=O)N/N=C/c1ccc2c(c1)OCO2	/	-3	/	3.8	-7.1	-0.6	/
CCCCNC(=O)CSc1nc2c(sc(=S)n2-c2cc(Cl)ccc2OC)c(=O)[nH]1	7%	0	0.64	-0.7	7.7	0.0	9.1
C/C=C/c1ccc(OCCOCCOc2cccc3cccnc23)c(OC)c1	/	-1	0.68	0.3	-1.5	-0.4	0.0
COc1ccc(Cc2nnc(SCC(=O)N(C)c3ccccc3)o2)cc1	-2%	-6	0.71	3.5	2.7	-0.9	1.7
COc1cccc(NC(=O)CSCC(=O)Nc2ccccc2)c1	8%	4	0.74	-2.6	3.2	-0.3	0.5
CCN(CC(=O)Nc1cccc(S(=O)(=O)N2CCCCC2)c1)Cc1ccccc1	3%	-4	0.7	2.0	4.1	0.0	4.3
CCN(CC)C(=O)[C@H]1C[C@H](CC(=O)NC(C)(C)C)C(=O)N2CCc3c([nH]c4ccc(Cl)cc34)[C@]12C	-9%	-2	0.69	1.0	/	/	2.9
Fc1ccc2cnc(-c3ccccc3)cc2c1	/	-3	0.71	-1.1	3.8	-7.6	-4.3
Nc1nnc(SCC(=O)N2CCN(c3ccccc3)CC2)n1-c1ccccc1	0%	-1	0.71	-2.5	2.0	0.5	1.3
CCOC(=O)C1=C(COC(=O)c2c(OC)cccc2OC)NC(=O)NC1C (stereo not drawn)	-7%	5	0.61	-2.8	-7.0	0.3	4.1
CN(CC(=O)NC1CCCCCCC1)S(=O)(=O)c1cccc2cccnc12	0%	-6	0.75	2.6	2.0	0.3	4.7
Cc1cc2cc(CCNC(=O)c3ccc(S(=O)(=O)N4CCCC4)cc3)c(=O)[nH]c2cc1C	/	10	0.69	1.3	5.1	0.4	2.3
O=C(NC1CCCCC1)C1CCCN1S(=O)(=O)c1ccc(Cl)cc1 (stereo not drawn)	/	2	0.66	2.5	-6.1	-0.1	-0.9
Cc1ccc(C2C(C(=O)c3sc(C)nc3C)=C(O)C(=O)N2CCN2CCOCC2)o1 (stereo not drawn)	5%	-1	0.78	-2.5	-4.6	-0.3	2.8
O=C(C1CCN(S(=O)(=O)c2ccccc2F)CC1)N1CCc2ccccc2C1	-10%	-6	0.69	-6.0	-3.1	-1.7	0.8
Cn1c(C(=O)O)cc2cc(Oc3ccccc3)ccc21	/	1	0.65	-2.1	4.6	-4.1	-16
O=C(NC1CCCCC1)C(c1ccccc1)N(Cc1ccc2c(c1)OCO2)C(=O)c1cnsn1 (stereo not drawn)	15%	2	0.69	-5.0	-8.5	-0.8	4.9
O=C(Cc1cnc2ncnn2c1)N1CCc2c([nH]c3ccccc23)C1c1ccccc1F (stereo not drawn)	3%	-19	0.63	2.7	-0.3	0.9	2.4
COCCn1c(-c2ccc(Cl)cc2)nc2c(c(=O)c3ccccc3n2C)c1=O	/	/	0.69	/	-5.7	1.8	2.1
CN1C(=O)C(Cc2cnc[nH]2)NC1=S (stereo not drawn)	1%	-1	0.67	-2.9	3.5	1.7	3.2
COc1ccccc1-n1c(-c2ccccc2)c[n+]2c1CCc1ccccc1-2	1%	-19&2	0.71&0.66	2.4&5.2	1.0&-2.3	-0.1&0.2	4.9&2.5
CC(=O)Nc1ccc(NC(=O)CSc2ccc3nnc(-c4ccccn4)n3n2)cc1	/	-9	0.72	0.0	2.6	1.2	2.0
CCC(C)NC(=O)CC(C)C (stereo not drawn)	-8%	-2	0.74	-2.5	0.9	0.9	1.5
C=CCc1cccc(/C=N/NC(=O)CCC(=O)Nc2ccc(F)cc2)c1O	1%	4	/	-5.0	1.8	0.1	/
O=P(CCCO)(Cc1ccccc1)Cc1ccccc1	/	-4	0.67	3.4	1.1	0.3	2.6
O=C(CCCN1C(=O)/C(=C/c2ccccc2Cl)SC1=S)NNC(=O)c1ccc(Cl)cc1Cl	-5%	2	0.74	0.8	-0.3	-0.6	9.2
CCSc1nnc(NC(=O)CCCOc2ccc(C)cc2)s1	-28%	11	0.69	-1.0	-3.0	0.2	1.5
Cc1cc(C)c(S(N)(=O)=O)c(C)c1-n1cnnn1	-6%	-12	0.66	1.1	3.0	0.3	-0.2
CCOC(=O)C1=C(COC(=O)COc2ccccc2C=O)NC(=O)NC1C (stereo not drawn)	1%	1	0.72	-1.3	-3.5	2.2	-3.0
O=C(O)COCC(=O)Nc1ccc(OCCc2ccccc2)cc1	-7%	8	0.66	0.3	6.6	-0.6	0.9
CC(=O)Cn1c(C(F)(F)F)nc2ccccc21	-3%	-6	0.62	-0.8	10	0.5	-0.5
COc1cccc(C(C(=O)NC2CCCCC2)N(C(=O)c2ccco2)c2ccccc2OC)c1 (stereo not drawn)	16%	2	0.67	-1.8	-2.0	0.3	1.8
CS(=O)(=O)N(CC(=O)N1CCN(c2ccc(F)cc2)CC1)C1CCCCC1	1%	10	0.67	0.0	0.8	-1.1	2.2
O=C1CCC(=O)N1OCCOc1ccc2c(c1)CCC2	-9%	0	0.73	-2.2	-5.3	0.4	4.3
O=[N+]([O-])c1ccc(S(=O)Cc2ccccc2)c([N+](=O)[O-])c1 (stereo not drawn)	?	49*	/	-0.6	/	/	/

With a hit mark in B2AR ag (from the list above):
canonical_smiles	Vif TR-FRET	B2AR ag	Ecoli growth	HNF4A DNA FP	LANA-H2A inh	UCH37 DUB inh
Cc1ccc(Cl)cc1NC(=O)CN1CCN(S(=O)(=O)N2CCOCC2)CC1	/	82*	0.65	0.9	1.7	4.8
O=[N+]([O-])c1ccc(S(=O)Cc2ccccc2)c([N+](=O)[O-])c1 (stereo not drawn)	?	49*	/	-0.6	/	/

The list goes on:
SMILES	Vif TR-FRET	B2AR ag	Ecoli growth	HNF4A DNA FP	LANA-H2A inh	A1 inh	UCH37 DUB inh
Cc1c(Cl)c(C(=O)NNC(=S)Nc2ccc(F)cc2)nn1C	-1%	-6	0.69	-2.8	2.2	0.7	0.9
CCOC(=O)C1(C)C(C(=O)OC)=C(c2ccc(OC)cc2)c2ccccc2N1C(=O)OC (stereo not drawn)	2%	-1	0.71	-0.8	/	/	1.1
CC(C)N1C(=O)CCC1C(=O)NC1CCCC1 (stereo not drawn)	18%	1	0.73	0.2	-1.4	-1.0	1.3
COCC(C)n1c(SC(C)C(=O)NC2CCCCC2C)nc2ccccc2c1=O (stereo not drawn)	/	4	0.69	-0.3	-1.7	-0.1	4.3
OC(CN1CCN(c2cccc(C(F)(F)F)c2)CC1)c1c[nH]c2ccccc12 (stereo not drawn)	?	3	0.66	-2.4	-3.4	0.1	1.0
CC(c1ccco1)N(C(=O)Nc1ccccc1)C1CCCCC1 (stereo not drawn)	16%	12	0.74	-2.5	-7.4	0.1	0.6
COc1ccc2c(=O)c(-c3ccc(C)cc3)c(-c3ccccc3)oc2c1	-11%	-9	0.66	-1.5	/	/	1.7
Cc1ccc(S(=O)(=O)N2CCCC(C(=O)NCc3ccccc3F)C2)cc1 (stereo not drawn)	-6%	-5	0.69	-2.0	4.3	0.3	3.2
CSc1ccccc1NC(=S)Nc1ccccc1C(F)(F)F	-5%	9	0.61	0.0	3.8	0.8	2.8
COc1ccc(-c2c(C)nn3c(C)cc(C)nc23)cc1	/	17	0.68	-2.6	0.1	0.1	1.1
Cc1cc(C(=O)N/N=C/c2cn(C)nc2C)c2ccccc2n1	-4%	-2	/	0.7	1.9	-0.3	/
O=C(CN1CCN(CC(=O)Nc2ccc(Cl)cc2)CC1)Nc1ccc(F)cc1	2%	-3	0.65	-8.8	7.2	1.0	1.7

Bioassay records: PubChem BioAssay, several laboratories
